Assay outcomes deposited in PubChem by several laboratories.
Mtb H37Rv = M. tuberculosis H37Rv growth inhibitors, H37Rv strain (AID 1626) | M. tuberculosis H37Rv growth inhibition; higher % means a stronger effect | one-dose inhibition, % at 10 µM; IC50 in µM for titrated hits | 220,000 compounds, 0.95% hits;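 active means confirmed in a dose series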;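 further: bacteria incubated seven days before Alamar blue readout; 0% = bacteria only wells and 100% = bacteria with antibiotic wells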
Mtb betalactam = beta-lactam sensitization of Mtb H37Rv | M. tuberculosis H37Rv growth with meropenem, percent inhibition; hits of this screen are not shown here | AID 434955 | inhibition, % at 25 µM | 330,000 compounds, 0.27% hits;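 active means about 74% or more and at least 40 points above the plate without the antibiotic, then above 30% in a dose series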;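 further: growth measured after seven days incubation then overnight dye step; 0% = bacteria only wells and 100% = bacteria with antibiotic; twin plates without the antibiotic show which effects depend on it; some results filed as inactive read as strong as hits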
YopH PTP inh = blocks Yersinia enterocolitica YopH tyrosine phosphatase; fluorescence Ex485/Em525; 140,000 compounds, 0.16% hits; inhibition, %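 (about 10 µM by stock and volumes)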;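 active means inhibition of 50% or more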;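 further: controls were vehicle for no effect and minimum signal wells for full effect; inactives centre near -20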
Arbovirus inh = antivirals against arbovirus infection. 200,000 compounds, 0.37% hits. inhibition, % at 10 µM. arbovirus infection cell-based antiviral screen;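 active means inhibition from about 30%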;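 further: bluetongue infection of BSR cells; cell survival read as ATP light after 72 h; 0% = infected wells without compound and 100% = uninfected wells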
RecA intein inh = inhibitors of M. tuberculosis RecA intein splicing; P9WHJ3; cell-free RecA intein splicing, fluorescence; inhibition, %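 (about 9 µM by stock and volumes)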; 290,000 compounds, 0.75% hits; AID 2221; in the data active means inhibition above about 30%;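 further: 0% = vehicle wells and 100% = reference inhibitor control wells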
Target sequence (P9WHJ3 whole entry, looked up): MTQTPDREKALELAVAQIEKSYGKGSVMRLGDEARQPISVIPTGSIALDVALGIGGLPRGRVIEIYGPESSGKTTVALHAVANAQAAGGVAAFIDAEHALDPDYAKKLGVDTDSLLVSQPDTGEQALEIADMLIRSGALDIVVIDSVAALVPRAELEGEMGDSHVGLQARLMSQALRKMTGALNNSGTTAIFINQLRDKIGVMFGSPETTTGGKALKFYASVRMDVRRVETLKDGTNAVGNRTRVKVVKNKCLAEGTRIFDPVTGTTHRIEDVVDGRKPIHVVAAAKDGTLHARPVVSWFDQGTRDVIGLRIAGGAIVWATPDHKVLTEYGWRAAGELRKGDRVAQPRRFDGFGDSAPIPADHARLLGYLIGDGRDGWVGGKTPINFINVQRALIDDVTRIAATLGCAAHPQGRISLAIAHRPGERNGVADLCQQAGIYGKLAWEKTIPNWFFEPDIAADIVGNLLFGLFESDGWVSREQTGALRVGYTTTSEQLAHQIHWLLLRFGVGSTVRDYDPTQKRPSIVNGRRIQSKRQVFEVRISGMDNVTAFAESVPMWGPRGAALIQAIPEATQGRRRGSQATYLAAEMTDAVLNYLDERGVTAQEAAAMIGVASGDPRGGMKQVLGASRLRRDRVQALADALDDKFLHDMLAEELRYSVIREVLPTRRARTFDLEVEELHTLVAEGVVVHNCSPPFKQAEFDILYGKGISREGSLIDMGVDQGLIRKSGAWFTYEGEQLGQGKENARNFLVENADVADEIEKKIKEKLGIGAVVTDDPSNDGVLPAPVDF
Arbovirus inh repeat = further read-out of Arbovirus inh, marked with its call; inhibition, %; measured here: 10K subset replicate screen; many hits read low in the repeat;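 first of two repeat runs on a subset; 0% = infected and 100% = uninfected wells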
Numbers without * were called inactive; x = no result given; & = joins results of further samples. This is a subset. The share of hits here may be higher or lower than overall.

SMILES | Mtb H37Rv | Mtb betalactam | YopH PTP inh | Arbovirus inh | RecA intein inh | others
CC(C)C(=O)NNC(=O)CSc1nnc(-c2ccccc2)c(-c2ccccc2)n1 | x | -6 | x | x | 2.5
Cc1cc(SCc2c(F)cccc2Cl)nc(=O)[nH]1 | x | 1 | x | x | -1.1
CC(=O)OC(C(=O)Nc1nccs1)c1ccccc1 (stereo not given) | x | 0 | x | x | -0.3
COC1=C(OC)C(=O)C(CCCCCCCCCCO)=C(C)C1=O | 2%&14% | x | x | -22 | x
CN(C)c1nc(N)nc(N(c2ccccc2)c2ccccc2)n1 | 4% | -7 | -12 | 3 | 3.2 | Arbovirus inh repeat=-5
Cc1ccc(NC(=O)NCCN2C(=O)C3C4C=CC(C4)C3C2=O)cc1 (stereo not given) | -5% | 5 | x | -1 | 0.7 | Arbovirus inh repeat=1
Cc1ccccc1N1CC(c2nc3ccccc3[nH]2)CC1=O (stereo not given) | -6% | -10 | 5 | 11 | 3.2
O=C(O)C1CCN(Cc2cnn(-c3ccccc3)c2-n2cccc2)CC1 | -1% | -3 | -29 | 2 | x
NC1=NC2(CCCC2)n2c(nc3ccccc32)N1 | 9% | -3 | x | 5 | -0.3
O=C(Cn1c(O)c(N=NC(=O)c2ccncc2)c2ccccc21)Nc1ccccc1 | -10% | -5 | x | x | -0.2
Cn1cc(S(=O)(=O)Nc2ccc(Br)cc2F)c(=O)n(C)c1=O | 4% | -1 | -30 | 14 | 1.0
CCOc1cc(NC(=S)Nc2ccccc2)c(OCC)cc1NC(=O)c1ccccc1 | -2% | 23 | -8 | 2 | -2.1
Cn1cc(Br)c(C(=O)N/N=C/c2cccc(OC3CSC3)c2)n1 | 8% | 4 | -27 | -2 | -3.6
CCOc1ccccc1N1CCN(S(=O)(=O)c2cc(C)ccc2OC)CC1 | 1% | -1 | x | 8 | 4.8
COC(=O)c1cc2c(C)[nH]c(C)c2cc(C(=O)OC)c1=O | 8% | 2 | -29 | 8 | -9.6
CC(C(=O)NCC1CCCCC1)N1CCN(S(=O)(=O)c2ccccc2F)CC1 (stereo not given) | 0% | -4 | x | -9 | 1.8
CCOC(=O)CNc1nnc(SCC(=O)OCC)[nH]c1=O | -14% | -10 | -18 | 7 | 41*
O=C(CN1C(=O)CSc2ccc(S(=O)(=O)N3CCCCC3)cc21)NCc1ccccc1Cl | x | 2 | x | x | 5.1
Cc1ccc(NC(=O)Cc2nnc(SCC(=O)Nc3nncs3)n2C)c(C)c1 | x | -11 | x | x | -1.1
N=c1ccn(CC(=O)c2ccc(-c3ccccc3)cc2)cc1 | x | 1 | x | -22 | x
O=C(Cn1nc(C(=O)O)c2ccccc2c1=O)Nc1ccc(F)cc1 | x | 0 | x | x | 0.0
CC1(C(=O)N/N=C/c2ccc3c(c2)OCO3)CC1(Br)Br (stereo not given) | x | 0 | x | x | -1.1
COc1ccc(NC(=O)CN2CCN(c3ccccn3)CC2)cc1Cl | x | -7 | x | x | 0.0
COc1ccc(S(=O)(=O)N2CCC(C(=O)OCC(=O)c3ccccc3)CC2)cc1[N+](=O)[O-] | -6% | 9 | -32 | 4 | -3.8
COc1ccccc1OCCNC(=O)Nc1ccc(Br)cc1 | 7% | -3 | x | 7 | 1.1
C=CCn1nnnc1SCC(=O)Nc1cccc(OC)c1 | 0% | -12 | -19 | 0 | 1.6
Cc1cc(C)c2cc(C)c(SCC(=O)NCc3ccco3)nc2c1 | -7% | 44 | x | -18 | -1.3
COC(=O)c1c(C(=O)OC)c(-c2ccc(Cl)c(Cl)c2)n2c1CCC2 | 4% | 24 | -23 | -8 | x
CCNC(=O)C(=O)NCC(c1cccs1)S(=O)(=O)c1ccc(C)cc1 (stereo not given) | x | -4 | x | x | 1.5
CCOC(=O)c1ccc(NC(=O)CSc2nnc(CNc3ccc(OC)cc3)n2C)cc1 | 59% | 96 | -35 | -10 | 2.2
COc1ccc(-c2cc(C(=O)Nc3ccc(OC)c(OC)c3)no2)cc1 | x | 3 | x | x | -0.4
CCc1cc(C(=O)NCCN(C)C)cs1 | 5% | -5 | -34 | 5 | 3.8
CCCS(=O)(=O)N1CCCC(C(=O)NCC2CCCO2)C1 (stereo not given) | -7% | -9 | -3 | 5 | -1.7
N#C/C(=N\Nc1ccc(S(=O)(=O)N2CCc3ccccc32)cc1)C(N)=S | 6% | 0 | x | -5 | 31*
CN(c1ccc(OCC(=O)OCC(=O)NCc2ccco2)cc1)S(=O)(=O)c1ccc2ccccc2c1 | 0% | 3 | x | 5 | 6.7
Cc1onc(-c2c(Cl)cccc2Cl)c1C(=O)N1CCCc2ccccc21 | 7% | 5 | -15 | -16 | 7.3
COc1ccc(C)cc1S(=O)(=O)Nc1ccccc1 | 0% | x | 3 | 1 | 0.3
CCOc1ccc2[nH]c3c(N4CCN(c5ccccn5)CC4)ncnc3c2c1 | 30% | 99 | -57 | 8 | 6.8
COc1ccc(NC(=O)NNS(=O)(=O)c2ccc(Br)cc2)cc1 | x | -3 | x | x | -0.4
CCCCCCC(=O)Nc1c(O)c2ccccc2[nH]c1=O | -10% | 5 | -9 | 2 | -1.5
Cc1ccc(C2(C(F)(F)F)NC(=O)N3CCN=C3S2)cc1 (stereo not given) | -7% | 11 | -53 | -3 | 2.2
COc1cc(/C=C2\S/C(=N/S(=O)(=O)Cc3ccccc3)NC2=O)c([N+](=O)[O-])cc1OC | -12% | -2 | x | x | -22
CN(CC(=O)N1CCc2[nH]c3ccc(F)cc3c2C1)CC1OCCO1 | -4% | -3 | 24 | 2 | 0.4
O=C(NCC1CCCO1)/C(=C\c1cccc([N+](=O)[O-])c1)NC(=O)c1ccccc1 (stereo not given) | 2% | -3 | x | 2 | -0.4
Cc1sc2ncnc(SCC(=O)c3ccc(Cl)s3)c2c1C | x | 2 | -8 | 6 | 1.7
OCCn1ccc(-c2ccccc2OCc2ccc(F)cc2)n1 | x | 0 | x | x | 4.6
COCCCNC(=O)c1ccc(CS(=O)(=O)c2cccc(C(F)(F)F)c2)o1 | x | 1 | x | x | 0.7
Cn1cccc1C(=O)c1cccc([N+](=O)[O-])c1 | 6% | -9 | x | -4 | 3.9

Sorted by molar mass (low to high): three of the compounds above
SMILES | Mtb H37Rv | Mtb betalactam | YopH PTP inh | Arbovirus inh | RecA intein inh | others
Cn1cccc1C(=O)c1cccc([N+](=O)[O-])c1 | 6% | -9 | x | -4 | 3.9
COc1ccc(C)cc1S(=O)(=O)Nc1ccccc1 | 0% | x | 3 | 1 | 0.3
OCCn1ccc(-c2ccccc2OCc2ccc(F)cc2)n1 | x | 0 | x | x | 4.6

Other entries:
SMILES | Mtb H37Rv | Mtb betalactam | YopH PTP inh | Arbovirus inh | RecA intein inh | others
COc1cc(NC(=O)c2cccs2)cc(OC)c1 | 1% | 4 | 11 | -4 | -0.4
O=C(O)c1ccccc1-c1ccccc1C(=O)Nc1ccccc1Br | x | 8 | x | x | -1.7
O=C(Nc1cccc(F)c1)c1cccnc1N1CCOCC1 | -5% | -6 | -20 | -2 | -1.2
O=C(OCC(=O)c1ccc([N+](=O)[O-])cc1)/C(=C/c1ccc(Cl)cc1)NC(=O)c1ccccc1 | 19% | 95 | 30 | -1 | 0.4
COc1ccc(NC(=O)CSc2nc(NS(=O)(=O)c3ccc(C)cc3)cc(=O)[nH]2)cc1 | 3% | 4 | -28 | -4 | 1.9
COCCCN(C(=O)CSCc1c(C)noc1C)c1c(N)n(Cc2ccccc2)c(=O)[nH]c1=O | x | -4 | x | x | 2.6
O=C(Cc1ccccc1)N1CCN(C(=O)c2ccco2)CC1 | -3% | -4 | -13 | 14 | -1.2
Cc1cnc(C(=O)Nc2cccc(S(=O)(=O)N(C)C)c2)cn1 | -7% | 2 | -15 | -1 | -9.5
CC(C)OCC(O)CS(=O)Cc1ccccc1 (stereo not given) | -8% | 5 | -29 | 0 | -1.3
COC(=O)CSc1nnc(-c2ccco2)o1 | -17% | 7 | 2 | 5 | -0.3
O=S(=O)(c1cnc[nH]1)N1CCN(c2ccc(Cl)cc2)CC1 | 5% | -3 | 0 | 14 | -3.6
CCC(C)(C)C1CCC2(CC1)NC(=O)N(CC(=O)Nc1nc(-c3ccc(C)cc3)cs1)C2=O (stereo not given) | -3% | -2 | 1 | -7 | -2.0

Gathered by group: those above containing a CF3 group
SMILES | Mtb H37Rv | Mtb betalactam | YopH PTP inh | Arbovirus inh | RecA intein inh | others
Cc1ccc(C2(C(F)(F)F)NC(=O)N3CCN=C3S2)cc1 (stereo not given) | -7% | 11 | -53 | -3 | 2.2
COCCCNC(=O)c1ccc(CS(=O)(=O)c2cccc(C(F)(F)F)c2)o1 | x | 1 | x | x | 0.7

The list goes on.
SMILES | Mtb H37Rv | Mtb betalactam | YopH PTP inh | Arbovirus inh | RecA intein inh | others
COc1ccc(CC(=O)N2CCN(S(=O)(=O)c3cccs3)CC2)cc1OC | -13% | 1 | x | x | -2.9
C=CCn1c(-c2ccc(Cl)cc2)cnc1SC(C)C(=O)NC(N)=O (stereo not given) | -3% | -8 | x | 5 | 2.4
O=C(CSc1nnc2ccc(-c3ccc(F)cc3)nn12)NCC1CCCO1 (stereo not given) | x | 3 | x | x | -1.6
OCCSc1nc(-c2ccccc2)nc2ccc(F)cc12 | 4% | 16 | x | -15 | 3.9
O=C(CNC(=O)c1cccs1)OCC(=O)c1ccc2ccccc2c1 | -13% | 9 | -5 | -3 | 1.3
COc1ccc(C2CC(c3ccc(Br)cc3)=NN2C(=S)Nc2ccccc2)cc1 (stereo not given) | 3% | -10 | x | -1 | 2.0
Cc1cc(C)n2cc(CSc3nc4ccccc4[nH]3)nc2n1 | -14% | 2 | -17 | 3 | -1.9
Cc1onc(-c2ccccc2Cl)c1C(=O)NCCN1Cc2ccccc2C1=O | -7% | 2 | -49 | 2 | 0.3 | Arbovirus inh repeat=1
Cc1ccc(C(=O)NCCCC(=O)O)o1 | -12% | -2 | -39 | 12 | 0.0 | Arbovirus inh repeat=5
CC(=O)Nc1ccc(OS(=O)(=O)c2ccc(C(C)(C)C)cc2)cc1 | 5% | -3 | x | -17 | -3.3
COc1cc(NC(=O)c2ccc3c(c2)OCO3)ccc1NC(=O)c1ccco1 | 3% | -2 | 30 | 1 | -3.3
O=C(CSc1n[nH]c(-c2cccnc2)n1)OC1CCCCC1 | -4% | 7 | x | -3 | 1.4

Nothing new here: two of the compounds above.
SMILES | Mtb H37Rv | Mtb betalactam | YopH PTP inh | Arbovirus inh | RecA intein inh | others
CC(C)C(=O)NNC(=O)CSc1nnc(-c2ccccc2)c(-c2ccccc2)n1 | x | -6 | x | x | 2.5
Cc1cc(SCc2c(F)cccc2Cl)nc(=O)[nH]1 | x | 1 | x | x | -1.1

Later entries.
SMILES | Mtb H37Rv | Mtb betalactam | YopH PTP inh | Arbovirus inh | RecA intein inh | others
COc1cc(NC(=O)c2ccco2)c(OC)cc1NC(=O)Nc1ccc(Cl)cc1 | -5% | 9 | -22 | -17 | -4.9
Cc1cc2oc(=O)cc(Cn3ccnc3)c2cc1O | x | 4 | x | x | -3.7
O=C(OCCCOC(=O)c1ccc(O)cc1)c1ccc(O)cc1 | x | 6 | x | x | 3.5
Cc1ccc(NC(=O)CN2C(=O)c3ccccc3C2=O)cc1 | x | 6 | x | x | -1.7
COc1ccc2sc3ccccc3c(=O)c2c1 | -6% | 35 | -22 | -1 | -353
O=C(COC(=O)CNC(=O)c1ccccc1)Nc1nc(-c2ccccc2)cs1 | 5% | -4 | -24 | -10 | -1.1
Cc1c(O)c2cccnc2[nH]c1=O | -10% | 6 | -15 | 0 | 2.1
Cc1cc(C)cc(N(CCC#N)C(=O)COC(=O)CNC(=O)c2sc3ccccc3c2Cl)c1 | x | 28 | x | x | 6.0
CCCn1c(=O)c(C(=O)NC(C)c2ccccc2)c(O)c2ccccc21 (stereo not given) | x | 3 | x | x | -1.5
O=C(c1ccccc1)c1ccccc1C(=O)N1CCCC1 | 5% | 4 | 7 | -2 | -5.1
CCOc1ccc(C(=S)N2CCCC2)c(OCC)c1 | x | 12 | x | x | 2.2
COc1ccc(S(=O)(=O)N2CCCCCC2)cc1C(=O)Nc1ccc(C)cn1 | x | 2 | x | x | 2.1
C[C@H](NC(=O)CCC1CCC(=O)N1)c1ccccc1 (stereo not given in full) | -13% | -3 | x | x | -2.5
C/C(CC(=O)Nc1cc(Cl)ccc1C)=N\NC(=O)C(=O)N1CCCC1 | x | 0 | x | x | -1.1
COCCN(C(=S)Nc1ccc(OC)cc1)C1CCN(C(C)=O)CC1 | -2% | 7 | -18 | 6 | -0.9
O=C(OCC1OC2OC3(CCCCC3)OC2C2OC3(CCCCC3)OC12)c1ccccc1 (stereo not given) | 2% | 4 | -29 | -3 | 4.8
ClC1(Cl)CC1CSc1nnc(-c2ccncc2)o1 (stereo not given) | x | 1 | x | x | 3.0
CS(=O)(=O)NCCCCCCNS(C)(=O)=O | -5% | -4 | x | 18 | -1.3
O=C(Cn1ccccc1=O)c1ccc(Cl)cc1 | -8% | -3 | x | 18 | 0.7
COC(=O)c1cccc(NC(=O)Nc2ccc(Cl)cc2)c1 | x | 1 | x | x | -1.3
S=c1[nH]nc(NCCCN2CCOCC2)s1 | -6% | 0 | x | x | -3.8
